# High-throughput results from PubChem.
# Mtb hypoxia rep: inhibitors of hypoxia-regulated fluorescent reporter in Mycobacterium tuberculosis; M. tuberculosis hypoxia-regulated fluorescent reporter, fluorescence; fluorescence inhibition, % (concentration not given with the values); 0.1% of 300,000 active; AID 1159583;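 active means 35 to 45% if threefold the growth effect, above 45% if 1.5-fold the growth effect; inactive means the rest, general growth blockers included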;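 further: wells of about 50 µL received 100 nL stock; 0% = vehicle wells and 100% = reference inhibitor wells; whole bacteria with a GFP reporter of the hypoxia response; strong numbers were not always called active; many hits fall short of the cut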
# PrP 5UTR inh: inhibition of PrP 5' UTR reporter expression | 0.35% of 340,000 active | inhibition, % (test concentration not listed) | cell-based PrP 5' UTR mRNA reporter, plate reader;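 active means every replicate at 50% or more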;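 further: 0 = median of the neutral control wells; tested in H4 reporter cells; numbers are from one replicate; inactives centre near -14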
# Sa RN4220 lethal: kills Staphylococcus aureus RN4220; AID 1259311; 0.33% of 330,000 active; inhibition, % (no concentration beside the values); S. aureus RN4220 growth, OD600, 16 h;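 active means z-score of -3 or lower and OD600 up to 0.18 on both plates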;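 further: plate controls were untreated cells for no effect and reference antibiotic for full effect; stock transfer was 100 nL into about 80 µL; one replicate is shown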
# ugtP null kill: kills S. aureus RN4220 lacking UgtP; S. aureus RN4220 ugtP deletion, OD600 growth, 16 h; some inactives read as strong as hits; growth inhibition, % (test concentration not listed); 0.54% of 330,000 active;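 active means z-score under -3 and OD600 up to 0.15 on both plates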;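 further: plate controls were untreated wells for no effect and antibiotic for full effect; wells of about 80 µL received 100 nL stock; the first replicate is given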
# Autofluor counter: counter-screen for toxin protease inhibitors: compound fluorescence; fluorescence intensity (concentration not given with the values); 3.1% of 360,000 active; compound autofluorescence counterscreen, microsphere flow cytometry; hits give high values;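 active means at least 3 SD above the mean of all compounds, about 16000 in these data; inconclusive means too few beads counted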;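 further: 100 nL of 1 mM stock went into each well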
# BJeLR viability: kills HRASV12-expressing BJeLR cells; 0.17% of 300,000 active; BJeLR (HRASV12) viability, CellTiter-Glo ATP luminescence, 48 h; reference of the scale not given here; inhibition, % (test concentration not listed); AID 1554;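 active means replicate mean above 50%; inconclusive means above 50% but judged a plate artefact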;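 further: 50 nL library stock added to about 25 µL; numbers are from one replicate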
# Mtb hypoxia rep growth: second read-out of Mtb hypoxia rep, no call of its own (marks repeat the call); growth inhibition, %; measured here: M. tuberculosis growth (absorbance);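 0% = vehicle and 100% = reference antibiotic; read after six days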
# An asterisk follows results filed as active; ? = inconclusive; · = not tested or not shown.
SMILES,Mtb hypoxia rep,Mtb hypoxia rep growth,PrP 5UTR inh,Sa RN4220 lethal,ugtP null kill,Autofluor counter,BJeLR viability
O=C(c1ccc(Cl)c(S(=O)(=O)N2CCCC2)c1)N1CCOCC1,2.1,0.5,-17.5,2.1,1.8,6481,-10.4
N/C(=N\OC(=O)c1cccnc1)c1ccccc1Cl,-4.1,-0.5,-124.6,1.2,2.6,4642,2.4
CCC1S/C(=N/N=Cc2ccco2)NC1=O (configuration not stated),-4.9,-11.7,·,5.1,3.5,·,·
O=C(Cc1cccs1)NCc1cc(Cl)cc(Cl)c1,7.7,8.5,-28.3,4.9,12.6,3737,-4.8
CC(=O)Nn1cc2c(=O)n(C)c(=O)n(C)c2c1,12.7,3.6,-52.5,2.1,0.4,13344,1.8
N#Cc1ccccc1CSc1nc(O)cc(=O)[nH]1,·,·,-12.1,-3.4,-2.3,4879,-6.4
O=C(NC1CCCc2ccccc21)c1ccc(CNc2c(N3CCOCC3)c(=O)c2=O)cc1 (configuration not stated),0.7,8.9,4.6,1.1,2.7,5754,3.9
COC(=O)c1ccc(OCCOCCOc2cccc3ccc(C)nc23)cc1,-4.7,-5.8,-18.1,5.4,10.2,2080,-17.7
Cc1nn(Cc2ccccc2Cl)c(C)c1NC(=O)c1noc2c1CCCCC2,14.2,7.2,-5.8,3.5,4.0,8204,-1.6
Cc1ccc(C)c(NC(=O)CCc2nnc3ccc(N4CCCCC4)nn23)c1,5.5,11.3,-5.8,1.6,-0.3,6039,-4.9
COCCCN1C(=O)C(O)=C(C(=O)c2ccco2)C1c1ccccc1 (configuration not stated),16.8,12.7,-30.3,-0.6,-1.8,2794,-9.8
COC(=O)c1ccccc1NC(=O)N1CCCC1,6.1,7.3,-17.2,7.5,4.7,11247,·
CCc1cc(=O)oc2c3c(cc(OCC(=O)NCc4ccncc4)c12)OC(C)(C)CC3,·,·,-27.5,0.3,9.1,5090,10.2
S=C(c1ccc(-c2ccccc2Cl)o1)N1CCCCC1,1.8,3.0,-97.6,14.3,14.0,2492,-12.6
Cc1cc(C)c2[nH]c(=O)c(CN(Cc3ccco3)C(=S)NCC3CCCO3)cc2c1 (configuration not stated),3.3,0.7,-8.0,4.7,-4.3,2197,3.1
COc1cc2c(c(OC)c1OC)-c1ccc(NC(=O)c3ccccc3)c(=O)cc1[C@@H](NC(C)=O)CC2,11.1,2.7,6.9,3.3,8.7,3170,25.0
CCN(CC)C(=NS(=O)(=O)c1ccc(F)cc1)c1ccccc1,15.8,3.7,·,0.9,14.4,·,·
CCOC(=O)C(Cc1ccccc1)NC(=O)CCc1c(C)nc2ncnn2c1C (configuration not stated),9.2,5.3,-32.0,0.0,4.1,5366,-9.3
COc1ccc2cc(N3CCCC3=O)ccc2c1,3.0,-2.2,-78.0,3.6,-3.1,4136,·
O=C(NNC(=S)Nc1ccc(Cl)cc1)c1ccccc1,6.9,-4.4,-30.2,2.8,3.6,·,6.3
Nc1nonc1C(=Nc1ccc(Br)cc1)NO,8.8,7.6,-25.2,8.7,-9.8,6025,1.7
CC1CC2(CCCCC2)Nc2c1ccc1ccccc21 (configuration not stated),12.9,11.8,-12.0,15.9,26.4,2276,-2.6
CSCCC(NS(=O)(=O)c1cccc(C(F)(F)F)c1)C(=O)N1CCN(C(=O)c2ccco2)CC1 (configuration not stated),2.8,0.1,-0.4,3.2,4.1,3170,·
CCOC(=O)c1cnc2nc(N3CCOCC3)nn2c1N,2.1,4.7,-19.0,4.7,0.9,2040,-9.8
CCCc1cnc(N2CCN(S(=O)(=O)c3cccs3)CC2)nc1,5.8,1.2,·,1.5,14.4,5697,4.3
COc1ccc(C=NNC(=O)c2ccncc2)c(C(=O)O)c1OC,5.9,17.3,·,2.8,4.2,·,·
Cc1cc(NC(=O)C(C)SCC(=O)OCC(=O)Nc2c(C)cccc2C(C)C)no1 (configuration not stated),9.3,5.6,-10.1,-2.6,3.4,4289,·
CCOC(=O)c1c(C)n(-c2ccc(OC)cc2)c2c(C/C(C)=N/O)c(Br)c(OC)c(O)c12,·,·,-9.0,·,·,2095,7.3
CN1CCN(C(=S)NC(=O)c2ccccc2Br)CC1,1.3,2.0,-5.4,1.5,7.5,5039,-7.1
COc1ccc2[nH]c(C)c(C(=O)CN3CCc4cc(OC)c(OC)cc4C3)c2c1,·,·,-14.2,·,·,3161,4.9
Cc1cc(-c2ccc(S(=O)(=O)N3CCc4ccccc4C3)s2)on1,1.7,-7.3,-10.1,5.8,9.5,3108,3.1
CC1(C)C[C@@H]2C[C@@](C)(CN2C(=O)c2cc(COc3cccc(C(F)(F)F)c3)on2)C1,8.0,10.2,-12.9,-4.6,-5.7,5519,-2.5
CCCC/C(C)=N/NC(=O)CN(c1ccc(Br)cc1)S(=O)(=O)c1ccccc1,·,·,-25.2,·,·,7492,2.4
COc1ccc(/C=C2/NC(=O)CNC2=O)cc1,14.1,1.6,-4.1,1.2,4.4,3935,7.0
N#Cc1ccc(Oc2c(Cl)cncc2Cl)cc1,2.2,7.0,-9.9,-1.1,7.5,3539,7.5
Cc1c(-n2c(CN3C(=O)c4ccccc4C3=O)nc3ccccc3c2=O)c(=O)n(-c2ccccc2)n1C,·,·,-11.3,3.3,3.8,2821,-3.0
Cc1ccc(Cn2c(N)nc3ccccc32)cc1,·,·,2.4,·,·,4198,1.6
COc1ccc(Cc2nnc(NC(=O)c3ccc(OC)c(OC)c3)s2)cc1,·,·,-16.6,·,·,4146,10.7
CSc1nc(-c2ccccc2)nc(N2CCCC2)c1C(C)=O,5.7,-2.4,-24.1,0.0,83.7,11301,-0.9
COc1ccc(N2C(=O)C(=Cc3ccc([N+](=O)[O-])cc3)N=C2C)c(OC)c1,-7.7,-4.3,·,3.5,-5.0,·,·
CCOc1cc(/C=C2\C(=O)NC(=O)N(C)C2=O)cc([N+](=O)[O-])c1O,7.0,8.3,-15.2,3.4,5.7,4442,1.6
O=C(c1cccc(N2C(=O)C3C4C=CC(C4)C3C2=O)c1)N1CCCc2ccccc21 (configuration not stated),-3.6,9.0,-16.4,9.1,6.2,4043,-27.3
Cc1ccc(Sc2nc(-c3ccccc3)nnc2C(F)(F)F)cc1,14.6,13.2,-25.2,2.0,-5.5,11180,5.4
O=C(/C=C/c1cccc([N+](=O)[O-])c1)Nc1ccccn1,2.4,11.6,-70.2,0.8,9.4,4337,2.4
COC(=O)c1sccc1NC(=S)Nc1ccccc1,3.6,0.6,-11.4,2.0,-0.8,2427,-8.1
CCOc1cc(C2C(C(=O)OC)=C(C)N=C3SC(C)C(=O)N32)ccc1OC(C)=O (configuration not stated),9.7,6.9,-10.5,3.9,-5.6,3207,-0.2
Cc1ccc(NC(=O)CSCC(=O)N2CCN(c3cccc(C(F)(F)F)c3)CC2)cc1,5.5,1.0,-4.1,0.5,9.9,5086,4.9
O=C(Nc1ccccc1Cl)Nn1cnnc1,-3.2,-7.8,-13.6,0.4,6.4,?,-1.3
Cc1ccc(S(=O)(=O)Nc2c(NC3CCCCC3)c3ccccc3oc2=O)cc1,-11.7,7.6,-6.4,-3.7,-11.2,4151,4.6
CCN(CC)c1ccc(C(=O)N/N=C/c2ccccc2OC(F)F)cc1,·,·,-20.4,·,·,2408,-0.7
c1ccc(-n2ncc3c(NCc4cccs4)ncnc32)cc1,-9.6,14.4,-53.7,-5.2,-8.1,8912,-2.1
Cc1ccc(CN2CCN(/N=C/c3cc(Br)cc(Br)c3O)CC2)cc1,·,·,-41.1,·,·,3008,5.9
CCn1c2ccccc2c2cc(NC(=O)COC(=O)c3ccc(O)cc3)ccc21,1.3,-0.5,-21.1,-1.0,-3.3,?,4.7
O=C(Cc1ccccc1)NNC(=O)c1ccccc1C(=O)O,-0.3,-2.6,-13.6,10.5,1.6,4242,-1.2
O=C(C1CC(=O)N(c2ccccc2)C1)N1CCN(C2=NS(=O)(=O)c3ccccc32)CC1 (configuration not stated),5.2,-0.5,-16.3,1.0,2.3,23523*,2.3
O=C(/C=C/c1cccs1)N1CCC2(CC1)Oc1ccc(Cl)cc1C(=O)C21CC(c2ccc(Cl)cc2)=NO1 (configuration not stated),·,·,-12.9,·,·,3103,-4.4
C[C@]12c3[nH]c4cc(-c5ccco5)ccc4c3CCN1C(=O)[C@@H](CC(=O)NCCN1CCOCC1)C[C@@H]2C(=O)N1CCOCC1,-11.4,5.2,-8.0,1.2,-1.4,3211,·
O=C(N=C1c2ccccc2CN1c1cccc(Cl)c1)c1cccnc1,6.3,-5.1,-6.2,4.4,-6.7,2537,-4.3
c1ccc(N2CCN(CCc3nnc4n3CCCCC4)CC2)cc1,15.9,-3.0,-13.9,3.0,3.4,9765,-3.9
COc1ccc(-c2[nH]ncc2-c2ccc(Cl)cc2)c(O)c1,-8.3,2.4,1.6,-16.7,16.1,3118,-8.1

# Next part, starting with the last 2 of the part before.
SMILES,Mtb hypoxia rep,Mtb hypoxia rep growth,PrP 5UTR inh,Sa RN4220 lethal,ugtP null kill,Autofluor counter,BJeLR viability
c1ccc(N2CCN(CCc3nnc4n3CCCCC4)CC2)cc1,15.9,-3.0,-13.9,3.0,3.4,9765,-3.9
COc1ccc(-c2[nH]ncc2-c2ccc(Cl)cc2)c(O)c1,-8.3,2.4,1.6,-16.7,16.1,3118,-8.1
COCCn1c(=S)[nH]c2cc(C(=O)N3CCc4ccccc43)ccc2c1=O,-3.7,2.8,-4.6,-0.2,12.2,24139*,9.1
COc1ccc(C=NNC(=O)c2ccc3c(c2)OCCO3)cc1[N+](=O)[O-],12.5,-0.8,·,3.1,-1.0,·,·
OCCn1nc(-c2ccccc2)cc1-c1ccccc1,2.0,-0.5,-7.3,7.0,2.8,3752,9.3
CCOC(=O)CC(=O)NC1(Cc2ccc(O)cc2)CCCCC1,2.5,10.1,-20.7,1.8,-1.2,2547,-4.4
O=C1C2CC=CCC2C(=O)N1c1cccc(OS(=O)(=O)c2ccc3ccccc3c2)c1 (configuration not stated),0.5,4.8,-7.5,12.7,-5.1,20101*,-5.5
COc1ccccc1-c1c(C)oc2cc(OC(=O)c3ccco3)ccc2c1=O,5.6,12.2,-38.7,3.0,-0.4,20703*,14.4
CC(=O)N1CCN(c2ccc(NC(=S)NC(=O)C=Cc3ccccc3)cc2)CC1,2.2,4.3,·,1.1,29.2,·,·
COc1cccc(OCc2cc(C(=O)N3CCCC3c3ccccn3)no2)c1 (configuration not stated),1.2,-5.8,-76.2,-1.2,9.2,6397,-1.7
N#Cc1c(N)[nH]c(=S)c(C#N)c1-c1ccccc1,4.2,11.4,-42.7,3.9,1.9,20825*,-3.6
CCN=C1NN=C(c2cc(C)n(Cc3ccco3)c2C)CS1,-17.0,2.6,83.4*,1.3,-5.0,2247,-0.1
O=C(NCCCc1ccccc1)c1cc(COc2c(F)cccc2F)on1,8.6,-0.4,-3.7,2.3,17.9,4779,8.2
COc1cccc(C=NNc2nnc3c(n2)[nH]c2ccccc23)c1OC,0.5,-6.0,·,0.1,6.9,·,·
CCOc1nc2ccccc2nc1NS(=O)(=O)c1ccccc1,11.3,4.8,-19.4,9.7,-6.3,11533,2.6
CCN1C(=N)N(c2ccccc2)C(=O)C(CC)(CC)C1=O,8.4,8.0,-81.7,1.6,1.7,3568,·
CNC[C@H](CC1CCCCC1)NC[C@H](NCCC1CCCC1)[C@H](C)O,8.0,9.4,-11.9,-10.2,-10.0,4053,5.6
COC(=O)c1ccccc1NC(=O)CSc1nnnn1-c1ccc(C)cc1C,·,·,-9.8,-5.8,7.9,4813,-3.6
CCCCNC(=O)CC1NCCNC1=O (configuration not stated),1.3,7.7,-16.6,-0.4,-4.1,3648,-9.5
CCc1ccccc1NC(=O)c1ccc2c(O)c(S(=O)(=O)c3ccc(OC)cc3)c(=O)[nH]c2c1,0.8,1.0,-17.3,0.6,-2.6,3935,4.8
N#Cc1ccc(CSc2nnc(-c3cnccn3)o2)cc1,24.3,13.6,-17.2,1.9,5.1,8587,-10.2
CCOC(=O)CCCCCNC(=O)c1ccc(F)cc1F,23.1,9.1,-10.4,4.5,5.3,3046,2.6
Cc1cccn2c(=O)c3cc(C(=O)NC4CCCC4)c(=N)n(C4CCCCC4)c3nc12,13.3,1.1,-23.3,4.5,2.0,6272,-3.5
